From PubChem BioAssay
MgrA DNA FP – S. aureus MgrA activity modulators, primary screen, biochemical, S. aureus Newman, fluorescence polarization | MgrA-DNA binding | inhibition, %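 (about 10 µg/mL by stock and volumes)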 | actives 0.13% (n = 84,000) | AID 602314, 2012;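 active means above 50% in either of two replicates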;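 further: 0% = protein plus DNA without compound and 100% = DNA alone without protein; higher means less MgrA bound to DNA so lower polarization; one replicate is shown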
Sa helicase inh – inhibitors of S. aureus replicative helicase, primary screen, biochemical, fluorescence unwinding readout; replicative DNA helicase (DnaC/DnaB), Staphylococcus aureus; purified S. aureus helicase, fluorescence unwinding assay; about half of the hits fall short of the stated cut; inhibition, %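 (tested at about 80 µM)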; actives 0.05% (n = 120,000); AID 485395, 2010;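 active means both duplicates at 50% or more, or one of them with a favoured structure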;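 further: 0% = mean of negative control wells and 100% = mean of positive control wells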
* = called active by the depositor; nt = no result given.

The first 3 records as a preview:
SMILES | MgrA DNA FP | Sa helicase inh
CCOc1ccc(C(=O)NC)c(OCC)c1 | -2.9 | 9.0
Cc1csc(SCC(=O)O)n1 | -1.1 | -3.0
N#Cc1c(-c2ccccc2)cc(-c2ccccc2)n(N)c1=O | -1.0 | nt

Results (from the top)
SMILES | MgrA DNA FP | Sa helicase inh
CCOc1ccc(C(=O)NC)c(OCC)c1 | -2.9 | 9.0
Cc1csc(SCC(=O)O)n1 | -1.1 | -3.0
N#Cc1c(-c2ccccc2)cc(-c2ccccc2)n(N)c1=O | -1.0 | nt
COc1ccc(NC(=O)C2(N(C(=O)c3ccc(-n4cnnn4)cc3)c3ccc(OC)cc3)CCCCC2)cc1 | nt | 5.0
O=C(O)C1CCCc2c1[nH]c1ccc(Cl)cc21 (stereo unspecified) | 4.8 | 18.0
CC1=C(C#N)C(c2ccc(Cl)cc2)C(C(=O)Nc2ccccc2)=C(C)N1 (stereo unspecified) | -0.1 | 22.0
COc1cc(/C=c2\sc3n(c2=O)C(c2c(OC)ccc4ccccc24)C(C(C)=O)=C(C)N=3)cc(OC)c1OC (stereo unspecified) | 1.5 | nt
Cc1ccc(Nc2nc(N)nc(CN3CCN(S(=O)(=O)c4ccc5c(c4)CCC5)CC3)n2)cc1 | nt | -19.0
Nc1nc2ccc(S(N)(=O)=O)cc2s1 | nt | -24.0
Cc1ccc(C2=NN(C(=O)COC(=O)C3CCN(S(=O)(=O)c4cccs4)CC3)C(c3ccco3)C2)cc1 (stereo unspecified) | nt | 13.0
CCOc1ccc(C2C=C(N)Oc3nc(COC)[nH]c32)cc1OC (stereo unspecified) | -0.6 | 12.0
COCCn1cnc2c1c(=O)n(Cc1ccc(Br)cc1)c(=O)n2Cc1ccccc1 | nt | -3.0
COc1cccc(Nc2nc(O)c(C3=c4ccccc4=NC3=O)s2)c1 | nt | 13.0
COC(=O)c1c(O)c2ccccc2[nH]c1=S | nt | -15.0
CC1(C)CC(=O)C2=C(C1)Nc1ccc3ncccc3c1C2c1ccc(O)c(O)c1 (stereo unspecified) | 17.6 | 13.0
O=C(O)c1ccc2cc[nH]c2c1 | 3.3 | nt
N#Cc1ccc(N2CCSCC2)cc1[N+](=O)[O-] | -2.1 | nt
COc1ccc(CCNC(=O)CSc2nc(C)nc3c2c(=O)n(C)c(=O)n3C)cc1OC | nt | 16.0
COC(=O)C1CNCCS1 (stereo unspecified) | nt | -12.0
Cc1cc(=O)[nH]c(SCc2nc3ccccc3s2)n1 | nt | 1.0
Brc1csc(C2SCCS2)c1 | -2.1 | nt
CC(=O)Nc1cccnc1NC(C)=O | nt | 0.0
CCOc1ccc(N(CC(=O)N2CCN(c3ccc(F)cc3)CC2)S(=O)(=O)c2c(C)noc2C)cc1 | nt | 10.0
CCCNC(=O)c1ccc2c(c1)N(Cc1ccccc1)C(=O)c1ccccc1S2=O (stereo unspecified) | nt | 16.0
N#Cc1ccccc1OCC(=O)NC1(C#N)CCCC1 | nt | -4.0
O=C(NCc1ccc(-c2cccs2)cc1)C1=Cc2ccccc2OC1 | -0.4 | nt
Cn1/c(=N/N=C/c2ccc(N3CCOCC3)cc2)sc2ccccc21 | nt | 3.0
CC(NC(=O)c1ccc(C(=O)NC(C)c2ccccc2)s1)c1ccccc1 (stereo unspecified) | 0.5 | 0.0
Cc1cc(C)cc(NC(=O)N(CCC(=O)O)Cc2ccccc2)c1 | nt | -3.0
CN(C(=O)c1ccco1)c1ccccc1C(=O)NCc1ccccc1 | -1.4 | 5.0
CC(=O)N1CCN(c2ncc(Cl)cc2Cl)CC1 | nt | -2.0
O=S(=O)(NCCc1ccccc1)c1cccc(S(=O)(=O)N2CCOCC2)c1 | 0.2 | 3.0
CCOC(=O)C1=C(C)NC(=O)C1CC(=O)Nc1ccccc1 (stereo unspecified) | -1.2 | nt
COC(=O)Cn1ncc(N2CCc3ccccc3C2)c(Cl)c1=O | nt | -9.0
Cc1ccc(S(=O)(=O)C(C#N)=C2N(C)c3ccccc3N2C)cc1 | nt | -16.0
Cc1ccc(C(N)CCc2ccco2)cc1C (stereo unspecified) | nt | 20.0
Cc1nc(-c2ccc(Cl)cc2)cc(C(F)(F)F)c1C#N | -1.1 | nt
CSc1ccc(C=Nc2ccc(C)c(C)c2)cc1 | -2.6 | 11.0
NC(=O)C(Cc1ccccc1)NC(=O)C12CC3CC(CC(C3)C1)C2 (stereo unspecified) | 0.2 | -15.0
CCOC(=O)c1c(CSC(=N)N)n(-c2ccc(OC)cc2)c2cc(Br)c(OC(C)=O)cc12 | nt | 1.0
O=C(Nc1ccc(N2CCOCC2)cc1N1CCOCC1)c1ncoc1-c1ccccc1F | -4.0 | 4.0
O=C(NCCC1=CCCCC1)c1ccccc1 | nt | 2.0
N#Cc1ccccc1OCCCn1cnc2ccccc2c1=O | 0.3 | 20.0
Cc1ccc(SCCn2cc(S(=O)(=O)N3CCCC3)ccc2=O)cc1 | nt | 14.0
Cc1ccc(NC(=O)c2ccccc2)cc1 | -0.3 | nt
COc1ccc(/C=C/C(O)=C2/C(=O)N(C)C34CCCC3C2c2ccccc2O4)cc1 (stereo unspecified) | 0.0 | 6.0
CC1C/C(=C/c2ccco2)C(=O)/C(=C/c2ccco2)C1 (stereo unspecified) | 7.7 | -57.0
CCn1c(CSc2nc3ccccc3s2)nnc1SCC(=O)c1ccc(O)c(O)c1 | nt | 40.0
CC(CO)(CO)NC(=S)Nc1ccc(F)c(Cl)c1 | -3.3 | nt
CCC(=O)Nc1cccc(C(=O)Nc2cc(C)on2)c1 | 2.5 | -3.0
O=C(Nc1ccccc1)N1c2ccccc2CCc2ccccc21 | -0.6 | -18.0
Brc1cccc(-c2nnco2)c1 | nt | -10.0
O=c1oc2ccccc2cc1-c1nc(-c2ccccc2)cs1 | nt | 15.0
O=C(OCc1cncs1)c1ccccc1 | -1.0 | nt
CCC(Oc1ccccc1)C(=O)Nc1ccc(Cl)cn1 (stereo unspecified) | -1.1 | 4.0
CCOC(=O)C1=NN(c2ccccc2)CC1C(=O)OC (stereo unspecified) | -0.3 | -3.0
COc1ccc(C2C3=C(CCCC3=O)Nc3n[nH]c(-c4ccc(Cl)cc4)c32)cc1OC (stereo unspecified) | 0.8 | 2.0
CCOc1ccc(C(=O)NC(C)c2ccccc2)cc1 (stereo unspecified) | -2.2 | 6.0
COc1cccc(/C(O)=C2\C(=O)C(=O)N(c3ccccn3)C2c2ccccc2)c1 (stereo unspecified) | nt | 14.0
CC(Cc1cccs1)C(=O)O (stereo unspecified) | -5.2 | 2.0

Single records, as listed above:
`O=C(OCc1cncs1)c1ccccc1` as listed: MgrA DNA FP: -1.0; Sa helicase inh: nt
`CC(CO)(CO)NC(=S)Nc1ccc(F)c(Cl)c1` as listed: MgrA DNA FP: -3.3; Sa helicase inh: nt
`COc1ccc(C2C3=C(CCCC3=O)Nc3n[nH]c(-c4ccc(Cl)cc4)c32)cc1OC` (stereo unspecified) as listed: MgrA DNA FP: 0.8; Sa helicase inh: 2.0

Next part
SMILES | MgrA DNA FP | Sa helicase inh
O=C(O)CSCC(=O)NC1Cc2ccccc2C1 | -4.1 | nt
O=C(/C=C/c1ccccc1)Oc1ccc2ccccc2c1 | 3.6 | -12.0
CCn1c2ccccc2c2cc(C=C(C#N)C#N)ccc21 | nt | -95.0
CC(=O)NC(=S)N1CCCc2ccccc21 | -8.6 | 10.0
Cc1cccc(-c2nc3cc(NC(=O)c4cc([N+](=O)[O-])c(C)c([N+](=O)[O-])c4)ccc3o2)c1 | -0.1 | nt
CCOC(=O)c1sc(SC)c2c1CCC=C2 | 2.4 | nt
CCCCNC(=O)Nc1sccc1C#N | nt | -17.0
Nc1ccccc1C(=O)NNc1c(Cl)cc(Cl)cc1Cl | 1.6 | nt
Cc1ccc(Nc2nc(CN(C)CCCc3[nH]nc(N)c3C#N)cs2)cc1 | nt | -11.0
NC(=O)CN1CCN(Cc2cccc3ccccc23)CC1 | 0.5 | 3.0
O=C1N/C(=C/c2ccc(O)cc2)C(=O)N1Cc1ccc(Br)cc1 | nt | 17.0
CCC(=O)NCCn1c(C)cc2ccccc21 | nt | -27.0
CN1CCC(=NNC(=O)CN(c2cccc(Br)c2)S(C)(=O)=O)CC1 | nt | 4.0
O=C(CC(=O)NC1CCCCC1)NC1CCCCC1 | 0.2 | -20.0
CC12CC(c3ccccc3O1)N(C(=O)c1ccccc1)C(=O)N2c1ccccc1 (stereo unspecified) | 0.0 | 7.0
O=C(CCc1nc2ccccc2[nH]1)NCCc1ccccc1 | nt | 6.0
CC(Sc1nnc(-c2cccs2)n1-c1ccccc1)C(=O)c1c(N)n(C)c(=O)n(C)c1=O (stereo unspecified) | nt | 2.0
c1nc(NCC2CCCO2)c2[nH]cnc2n1 (stereo unspecified) | nt | 10.0
NCCN1C(=O)S/C(=C/c2cccs2)C1=O | 6.6 | 3.0
COc1ccc(CNC(C)C2CC2)cc1 (stereo unspecified) | nt | -13.0
N#Cc1c(NC(=O)C2c3ccccc3Oc3ccccc32)oc(-c2ccco2)c1-c1ccco1 | nt | -10.0
CN1C(C(=O)NCC2CCCO2)=CC(c2cccs2)=NS1(=O)=O (stereo unspecified) | 5.2 | 20.0
Cc1noc(/C=C/N(C)C)c1S(=O)(=O)NCCN1CCN(c2ccccc2F)CC1 | nt | 5.0
COCCCNc1oc(-c2ccccc2)nc1S(=O)(=O)c1ccccc1 | -1.8 | 20.0

Quoted at random: three entries already listed.
SMILES | MgrA DNA FP | Sa helicase inh
CN1C(C(=O)NCC2CCCO2)=CC(c2cccs2)=NS1(=O)=O (stereo unspecified) | 5.2 | 20.0
CC(Sc1nnc(-c2cccs2)n1-c1ccccc1)C(=O)c1c(N)n(C)c(=O)n(C)c1=O (stereo unspecified) | nt | 2.0
COCCCNc1oc(-c2ccccc2)nc1S(=O)(=O)c1ccccc1 | -1.8 | 20.0

3 entries already listed, sorted by the value under Sa helicase inh, low to high:
Compound	MgrA DNA FP	Sa helicase inh
Cc1ccc(S(=O)(=O)C(C#N)=C2N(C)c3ccccc3N2C)cc1	nt	-16.0
Cc1cc(=O)[nH]c(SCc2nc3ccccc3s2)n1	nt	1.0
COc1ccc(C2C3=C(CCCC3=O)Nc3n[nH]c(-c4ccc(Cl)cc4)c32)cc1OC (stereo unspecified)	0.8	2.0

Going on with the list:
SMILES | MgrA DNA FP | Sa helicase inh
CCCCn1c(NC(=O)c2ccc(Br)o2)c(S(=O)(=O)c2ccc(C)cc2)c2nc3ccccc3nc21 | nt | 11.0
COc1ccc(N=C2SC(C(=O)O)CC(=O)N2C)cc1 (stereo unspecified) | nt | -11.0
O=S(=O)(NCc1cccs1)c1ccc(Cl)cc1 | -1.3 | nt
CCc1nnc(SCC(=O)OC)c2cc3sccc3n12 | nt | 17.0
Nc1nc(COc2ccccc2)cs1 | 1.3 | 17.0
Cc1ccc(S(=O)(=O)NC(C)C(=O)Oc2cc3oc(=O)c(Cl)c(C)c3cc2Cl)cc1 (stereo unspecified) | 1.1 | 18.0
N#CCOC(=O)c1cc(-c2ccc(C=C(C#N)C#N)o2)ccc1Cl | 7.6 | -104.0
CC(=O)Nc1nc(CSc2nnc(-c3cccc(S(=O)(=O)N4CCCCC4)c3)o2)cs1 | nt | -6.0
COc1ccc(C(=O)OCC(N)=O)c(OC)c1 | nt | -22.0
Nn1c(SCC(=O)NCc2ccc3c(c2)OCO3)nncc1=O | nt | 7.0
Cc1nc(Cc2nnc(SCC(=O)c3ccc(Cl)s3)o2)cs1 | nt | -12.0
COC(=O)c1nc(NC2=NCCCCC2)n[nH]1 | nt | -2.0
COc1cc(C2C(C#N)=C(C)Nc3oc(C)nc32)ccc1OCCN1CCOCC1 (stereo unspecified) | -0.8 | 11.0
COc1ccc2nc(NC(=O)[C@@H]3CCCN3C(=O)c3cccs3)sc2c1 | nt | -4.0
Cc1ccccc1OCC(=O)NC1CCCCC1 | -1.2 | 2.0
O=C(c1ccc2c(=O)n(-c3ccccc3)c(=O)[nH]c2c1)N1CCN(c2ccc(F)cc2)CC1 | nt | 10.0
O=C(CSc1cccc[n+]1[O-])NCC1CCCCC1 | nt | 15.0
O=C(O)Cn1cc(/C=C2\C(=O)NC(=O)N(c3ccc4c(c3)OCO4)C2=O)c2ccccc21 | nt | -17.0
COC(=O)N/N=C/c1cn(-c2ccccc2)nc1-c1ccc(OC)cc1 | nt | 4.0
CN(CCC#N)C(=O)Cn1cnc2c(cnn2-c2ccc(F)cc2)c1=O | nt | 8.0
Cn1c(=O)c2c(nc(NCc3ccc4c(c3)OCO4)n2Cc2cccc3ccccc23)n(C)c1=O | 3.5 | nt
CCC(Oc1ccccc1)C(=O)N1CCOCC1 (stereo unspecified) | -3.3 | 7.0
Cc1nn(CCCC(=O)NCCc2ccccc2)c(=O)c2nccn12 | -0.8 | -4.0
O=C(CCN1CCOCC1)N1c2ccccc2Sc2ccc(Cl)cc21 | -0.2 | 1.0
N/C(Cn1ccccc1=O)=N\O | nt | -14.0
COC(=O)c1ccc(CSc2ncccn2)cc1 | -1.0 | nt
C=CCc1c(C)nc(SC)nc1Nc1ccc(C(=O)O)cc1 | 3.4 | 0.0
O=C(C1CCC1)N1CCc2cc(S(=O)(=O)NCCN3CCCC3)ccc21 | 0.8 | 8.0
CCC1(CC)Cc2ccccc2-c2nc(NCCCO)[nH]c(=O)c21 | 1.8 | 6.0
CC(C)(C)C1=C(C#N)C(c2ccc(Cl)cc2)CC(=O)N1 (stereo unspecified) | -0.2 | nt
CCc1sc(-c2ccccc2)nc1C(=O)OC | 0.1 | nt
OC1CCCCC1c1ccccn1 (stereo unspecified) | nt | -14.0
Cc1nc(-c2cnccn2)ncc1S(=O)(=O)c1ccc(Cl)cc1 | 0.3 | nt
COc1ccc(NC(=O)c2c(C)oc3ccc(O)c(CN4CCN(C)CC4)c23)cc1 | nt | 9.0

Not all compounds are listed (hit frequency here may not be typical).
